FGF22 binding = FGF22 (human) thermal shift binding; recombinant FGF22 thermal shift, SYPRO orange fluorescence; percent of sucrose octasulfate shift, DMSO zero; calls only at 9.99 µM; 340,000 tested, 1.5% active; AID 651658;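 active = melting point raised past a set limit in the mean and every replicate; three in four hits are not shown here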
Target sequence (Q9HCT0 whole entry, looked up): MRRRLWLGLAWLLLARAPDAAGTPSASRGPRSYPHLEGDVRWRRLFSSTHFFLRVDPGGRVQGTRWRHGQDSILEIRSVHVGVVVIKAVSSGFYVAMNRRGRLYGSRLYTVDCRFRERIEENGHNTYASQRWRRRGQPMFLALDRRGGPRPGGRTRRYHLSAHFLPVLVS
Ecoli rRNA inh = inhibits bacterial ribosomal RNA function over humanized ribosomes; E. coli WT GFP vs humanized-ribosome RFP mutants, fluorescence, 24 h; stronger effect = lower value; DMSO median 0, no signal -100; GFP signal change (wild-type ribosome), % (test concentration not listed); 350,000 tested, 1.6% active; AID 720706;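 active = significant combined selectivity score with lowered wild-type GFP, culture density cut under 30%, mutant RFP and density less affected; inactive = any of these conditions unmet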; note: one replicate is shown; some compounds called inactive have numbers as strong as hits
MLL AF4-AF9 inh = blocks AF4 peptide binding to human AF9; AlphaScreen, biotin-AF4 peptide binding to FLAG-AF9; inhibition, % at 10 µM; 350,000 tested, 0.47% active; AID 651704;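 active = every replicate reaching a set inhibition limit, whatever the replicate mean, cut at about 25% in these data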;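 note: 0% = plate neutral control median and 100% = total signal loss; the record names both 10 and 1 µM as test concentration; the first replicate is given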
Target sequence (P42568 whole entry, looked up): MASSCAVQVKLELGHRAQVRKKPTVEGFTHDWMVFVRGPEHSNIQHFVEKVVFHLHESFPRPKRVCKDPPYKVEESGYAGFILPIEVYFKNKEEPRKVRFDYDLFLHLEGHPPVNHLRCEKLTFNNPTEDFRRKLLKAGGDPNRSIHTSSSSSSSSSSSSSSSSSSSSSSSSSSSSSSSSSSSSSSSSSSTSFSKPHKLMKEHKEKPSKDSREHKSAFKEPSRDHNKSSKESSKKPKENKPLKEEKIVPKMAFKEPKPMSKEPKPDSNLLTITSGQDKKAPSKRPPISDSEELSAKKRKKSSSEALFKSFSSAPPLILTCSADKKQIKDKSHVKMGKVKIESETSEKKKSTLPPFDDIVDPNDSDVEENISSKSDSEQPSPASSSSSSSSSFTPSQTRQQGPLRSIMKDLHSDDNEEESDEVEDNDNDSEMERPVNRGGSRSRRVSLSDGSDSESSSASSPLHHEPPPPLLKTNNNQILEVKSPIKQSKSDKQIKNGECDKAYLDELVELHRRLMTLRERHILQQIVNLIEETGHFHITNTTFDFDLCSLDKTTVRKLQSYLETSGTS
Ecoli rRNA inh OD600 = further read-out of Ecoli rRNA inh, marked with its call; OD600 change, %; measured here: OD600 growth;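 optical density of the mix in the first replicate; 0 = DMSO median and -100 = no signal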
Ecoli rRNA inh RFP = recorded beside Ecoli rRNA inh, whose call it bears; RFP signal change, %; measured here: RFP humanized mutant strains;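 first replicate; 0 = DMSO median and -100 = no signal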
Numbers without * were called inactive; i = inactive. The list is partial, so the mix of outcomes need not match the whole.

SMILES | FGF22 binding | Ecoli rRNA inh | Ecoli rRNA inh OD600 | Ecoli rRNA inh RFP | MLL AF4-AF9 inh
CCC(=O)N[C@@H]1CC[C@H](CC(=O)NCCN2CCCCC2)O[C@H]1CO | i | 0.9 | 2.0 | 0.8 | -3.3
CO[C@@H]1CN(C)C(=O)c2ccc(NC(=O)c3ccc(F)cc3)cc2OC[C@H](C)N(C(=O)CN(C)C)C[C@H]1C | i | 0.1 | -1.7 | -2.2 | 2.8
C[C@@H]1CN([C@H](C)CO)C(=O)Cc2cc(NC(=O)CCC(F)(F)F)ccc2O[C@H]1CN(C)S(=O)(=O)c1cccs1 | i | -2.6 | 1.9 | -1.9 | -2.7
CNC[C@H]1Oc2ccc(N(C)C)cc2CC(=O)N([C@H](C)CO)C[C@@H]1C | i | 0.7 | -7.5 | -2.1 | -2.7
N#C[C@H]1[C@@H](c2ccc(C3=CCCCC3)cc2)[C@@H](CO)N1C(=O)CN1CCOCC1 | i | -30.6 | -63.2 | -0.5 | 8.4
C[C@@H]1CN([C@H](C)CO)C(=O)c2cccc(NC(=O)Nc3ccccc3)c2O[C@@H]1CN(C)Cc1ccc(Cl)c(Cl)c1 | i | -6.2 | -34.3 | -0.4 | 6.8
C[C@H]1CN([C@@H](C)CO)C(=O)Cc2cc(NS(=O)(=O)c3ccc(F)cc3)ccc2O[C@@H]1CN(C)Cc1ccccc1 | i | -1.7 | -9.4 | 5.1 | -17.6
Cc1cccc(NC(=O)c2cccc(NC(=O)c3ccco3)c2)c1 | i | -17.7 | -10.9 | -4.1 | 6.8
Cc1ccc(S(=O)(=O)Nc2ccc3c(c2)C(=O)N([C@H](C)CO)C[C@@H](C)[C@@H](CN(C)C(=O)Nc2ccc(C(F)(F)F)cc2)O3)cc1 | i | 2.8 | -6.1 | 1.8 | -1.7
C[C@H]1CCCCO[C@H](CN(C)C(=O)C2CCCCC2)[C@@H](C)CN([C@@H](C)CO)C(=O)c2cc(NC(=O)Nc3ccc(C(F)(F)F)cc3)ccc2O1 | i | 2.5 | 8.6 | -0.4 | 0.1
COc1ccc(S(=O)(=O)N(C)C[C@H]2OCCCC[C@@H](C)Oc3ccc(NS(C)(=O)=O)cc3C(=O)N([C@H](C)CO)C[C@H]2C)cc1 | i | -5.7 | -8.7 | -2.5 | 8.9
O=C1CCC[C@@H]2C[C@@]3(C[C@@H]4CCN1[C@H]24)Nc1cc([N+](=O)[O-])ccc1NC3=NC1CCCCC1 | i | 4.2 | 22.7 | 7.8 | 13.7
COc1ccc(C(=O)Nc2ccc3c(c2)OC[C@@H](C)NC[C@H](C)[C@H](OC)CN(C)C3=O)cc1 | i | -1.8 | 6.2 | 1.4 | -1.1
O=C(NCC[C@H]1CC[C@@H](NS(=O)(=O)c2ccc(Cl)cc2)[C@@H](CO)O1)c1ccccc1F | i | -2.7 | -6.6 | -0.1 | -1.7
CCCNC(=O)N1C[C@H](O)COC[C@@H]2O[C@H](CC(=O)N[C@H]3CCN(Cc4ccccc4)C3)CC[C@H]21 | i | 1.8 | 5.9 | -2.8 | -8.2
O=C(Nc1ccccc1)Nc1nnc([C@@H]2C[C@H](O)[C@@H](CO)O2)s1 | i | 8.9 | 23.1 | 1.2 | -2.9
Cc1noc(C)c1NC(=O)Nc1ccc2c(c1)C(=O)N([C@H](C)CO)C[C@@H](C)[C@@H](CN(C)C(=O)NC1CCCCC1)O2 | i | -0.1 | -4.5 | -0.8 | 0.1
CC(C)C#Cc1cnc2c(c1)C(=O)N([C@H](C)CO)C[C@H](C)[C@@H](CN(C)Cc1cncnc1)O2 | i | -3.1 | 6.1 | -1.2 | -1.7
C[C@@H]1CN([C@@H](C)CO)C(=O)c2cc(NC(=O)c3ccncc3)ccc2O[C@@H]1CN(C)C(=O)Nc1cccc2ccccc12 | i | -1.1 | 2.0 | -0.2 | -0.3
OC[C@H]1O[C@H](c2nc(-c3nc(-c4cccc(-n5cccc5)c4)no3)cs2)C[C@@H]1O | i | -9.3 | -1.6 | 0.1 | 5.0
CCNC(=O)[C@@H]1[C@@H](CO)[C@@H]2Cn3c(ccc(-c4cccc(F)c4)c3=O)[C@@H]2N1Cc1nccs1 | i | 0.3 | -8.5 | -1.1 | 0.5
CO[C@@H]1CN(C)C(=O)c2ccc(NC(C)=O)cc2OC[C@@H](C)N(Cc2cc(F)ccc2F)C[C@H]1C | i | -8.6 | -10.4 | 1.9 | 2.9
COC(=O)C[C@H]1CC[C@@H](NC(=O)c2ccncc2)[C@@H](CO)O1 | i | 18.7 | 17.4 | 3.5 | 0.3
O=C(C[C@H]1CC[C@@H]2[C@H](COC[C@@H](O)CN2CC2CCOCC2)O1)NCC1CCCCC1 | i | 1.0 | 5.8 | -4.2 | -2.5
COc1ccc(NC(=O)Nc2cccc3c2O[C@@H](CN(C)Cc2ccccc2)[C@@H](C)CN([C@H](C)CO)C3=O)cc1 | i | -0.1 | 2.3 | -1.8 | 3.1
COCCN(C(=O)COC(=O)C1CC(=O)N(c2ccc(C)cc2)C1)c1c(N)n(Cc2ccccc2)c(=O)[nH]c1=O (centres undefined) | i | 11.1 | 8.0 | -1.4 | 6.8
C[C@@H]1CN([C@H](C)CO)C(=O)c2cccc(N(C)C)c2O[C@@H]1CN(C)Cc1ccncc1 | i | 6.1 | 3.6 | -1.7 | -2.0
CCC(=O)N1C[C@H](C)[C@@H](OC)CN(C)C(=O)c2ccc(NC(=O)NC(C)C)cc2OC[C@H]1C | i | -0.7 | 0.4 | -0.9 | -1.4
O=C(c1ccc(F)cc1)N1C[C@@H]2[C@H](c3ccccc31)[C@H](CO)N2C(=O)c1ccc(F)cc1 | i | 2.9 | 14.5 | -2.8 | -1.5
CCC(=O)N1CCCC(C(=O)NS(=O)(=O)c2cc(C)c(Cl)cc2C)CC1 (centres undefined) | i | 5.7 | 10.9 | -0.9 | -1.2
CC(C)NC(=O)N[C@@H]1CC[C@@H](CCNC(=O)C2CCCC2)O[C@@H]1CO | i | 2.3 | -14.0 | 1.2 | -1.5
CCNC(=O)C[C@@H]1CC[C@H]2[C@H](COc3ccc(NC(=O)c4ccc(F)cc4)cc3C(=O)N2C)O1 | i | 1.3 | -1.9 | -0.6 | -1.9
COCC(=O)Nc1ccc2c(c1)C(=O)N(C)[C@H]1CC[C@H](CC(=O)NCc3ccccc3F)O[C@@H]1CO2 | i | 2.8 | 0.3 | 1.3 | -3.1
N#C[C@@H]1[C@@H](c2ccccc2C2=CCCCC2)[C@H](CO)N1C(=O)C1CCOCC1 | i | -3.5 | 4.3 | -2.8 | -0.7
C[C@@H]1CN([C@@H](C)CO)C(=O)Cc2cc(NC(=O)C3CC3)ccc2O[C@@H]1CN(C)Cc1ccc(-c2ccccc2)cc1 | i | -1.2 | -39.0 | 12.6 | -3.4
COCC(=O)Nc1ccc2c(c1)C(=O)N(C)[C@@H]1CC[C@@H](CC(=O)NCC3CCCCC3)O[C@@H]1CO2 | i | 1.1 | 4.3 | 0.9 | -0.4

Single values from the list.
Ecoli rRNA inh RFP with N#C[C@@H]1[C@@H](c2ccccc2C2=CCCCC2)[C@H](CO)N1C(=O)C1CCOCC1 stands at -2.8
MLL AF4-AF9 inh with CCNC(=O)C[C@@H]1CC[C@H]2[C@H](COc3ccc(NC(=O)c4ccc(F)cc4)cc3C(=O)N2C)O1 stands at -1.9

Returning to the listing, starting four compounds before the break.
SMILES | FGF22 binding | Ecoli rRNA inh | Ecoli rRNA inh OD600 | Ecoli rRNA inh RFP | MLL AF4-AF9 inh
COCC(=O)Nc1ccc2c(c1)C(=O)N(C)[C@H]1CC[C@H](CC(=O)NCc3ccccc3F)O[C@@H]1CO2 | i | 2.8 | 0.3 | 1.3 | -3.1
N#C[C@@H]1[C@@H](c2ccccc2C2=CCCCC2)[C@H](CO)N1C(=O)C1CCOCC1 | i | -3.5 | 4.3 | -2.8 | -0.7
C[C@@H]1CN([C@@H](C)CO)C(=O)Cc2cc(NC(=O)C3CC3)ccc2O[C@@H]1CN(C)Cc1ccc(-c2ccccc2)cc1 | i | -1.2 | -39.0 | 12.6 | -3.4
COCC(=O)Nc1ccc2c(c1)C(=O)N(C)[C@@H]1CC[C@@H](CC(=O)NCC3CCCCC3)O[C@@H]1CO2 | i | 1.1 | 4.3 | 0.9 | -0.4
CC(C)NC(=O)Nc1ccc2c(c1)C(=O)N([C@H](C)CO)C[C@@H](C)[C@@H](CN(C)C(=O)Cc1ccccc1)OCCCC[C@H](C)O2 | i | 0.0 | -1.6 | 0.4 | -2.0
N#C[C@H]1[C@@H](c2ccc(C#CC3CCCC3)cc2)[C@@H](CO)N1S(=O)(=O)Cc1ccccc1 | i | -5.6 | -22.5 | 5.7 | 0.5
Cc1ccc(S(=O)(=O)N2C[C@]3(O)C[C@@H]4C(=O)N(c5ccccc5)C(=O)[C@@H]4C[C@]3(OC(=O)NC3CCCC3)C2)cc1 | i | 9.3 | 6.4 | 7.1 | 2.1
COC(=O)[C@]12C[C@H](CC(=O)NCC34CC5CC(CC(C5)C3)C4)C(=O)N(CCC3=CCCCC3)C1=C[C@H](COCc1ccccc1)O[C@@H]2C | i | 6.8 | 8.7 | 4.0 | -1.8
O=C(C(=O)N1CCN(C(=O)C2CCC2)CC1)c1cccc(C(F)(F)F)c1 | i | 3.3 | 3.9 | -0.9 | 1.0
O=C1CNC[C@@H]2[C@H](c3ccc(C#Cc4cccnc4)cc3)[C@H](CO)N12 | i | -1.9 | 10.3 | -0.6 | -4.5
C[C@@H]1CN([C@@H](C)CO)C(=O)Cc2cc(NC(=O)Cn3cnnn3)ccc2O[C@H]1CN(C)S(=O)(=O)c1ccc(F)cc1 | i | 0.9 | 9.3 | 0.7 | 0.6
COc1cccc(-c2cn(CC[C@@H]3CC[C@@H](NC(=O)CC4CC4)[C@@H](CO)O3)nn2)c1 | i | -1.7 | -2.7 | -0.8 | -2.2
Cc1cccc(C)c1-n1nnnc1C1c2ccccc2C(=O)N1CCc1ccccc1F (centres undefined) | i | -30.4 | -52.4 | -6.5 | 0.6
O=S(=O)(N[C@H]1CC[C@@H](CCn2cc(-c3ccccn3)nn2)O[C@@H]1CO)c1cccc(F)c1 | i | -0.3 | 2.6 | -3.5 | 0.9
CCOC(COC(=O)c1ccccc1C(=O)O)c1ccccc1 (centres undefined) | i | 1.1 | 4.4 | -0.2 | -5.8
Cc1cc(C)c(C(=O)COC(=O)c2cccc(S(=O)(=O)N3CCOCC3)c2)cc1C | i | 7.8 | -11.9 | 1.1 | -2.1
COc1ccc(-c2ccc(C(=O)Nc3ccc4c(c3)OCO4)c3occc23)c(C)c1 | i | -5.7 | 5.8 | 1.4 | 0.9
CCCn1c(CC)nc([N+](=O)[O-])c1Sc1ncn[nH]1 | i | -3.2 | 13.5 | 3.4 | -2.3
C[C@@H]1CCCCO[C@@H](CN(C)Cc2ccc(Cl)c(Cl)c2)[C@H](C)CN([C@H](C)CO)C(=O)c2cc(NC(=O)Nc3ccccc3)ccc2O1 | i | 4.5 | 11.0 | 3.0 | 0.6
C[C@@H]1CN([C@H](C)CO)C(=O)c2cccc(NC(=O)c3nc4ccccc4s3)c2O[C@H]1CN(C)Cc1ccc(C(=O)Nc2ccccc2N)cc1 | i | 0.2 | -1.0 | -1.1 | 1.7
C[C@H](CO)N1C[C@H](C)[C@@H](CN(C)C(=O)Nc2cc(F)ccc2F)Oc2cc(/C=C/c3ccccc3)ccc2S1(=O)=O | i | 1.3 | 4.0 | 2.0 | -2.9
C[C@H]1CN([C@@H](C)CO)C(=O)c2cccc(NC(=O)c3ccc(-c4nccs4)cc3)c2O[C@H]1CN(C)C(=O)NC1CCCCC1 | i | -4.4 | -0.8 | 1.4 | -3.6

A draw from above in order of length of the SMILES, falling.
SMILES | FGF22 binding | Ecoli rRNA inh | Ecoli rRNA inh OD600 | Ecoli rRNA inh RFP | MLL AF4-AF9 inh
C[C@@H]1CCCCO[C@@H](CN(C)Cc2ccc(Cl)c(Cl)c2)[C@H](C)CN([C@H](C)CO)C(=O)c2cc(NC(=O)Nc3ccccc3)ccc2O1 | i | 4.5 | 11.0 | 3.0 | 0.6
C[C@H](CO)N1C[C@H](C)[C@@H](CN(C)C(=O)Nc2cc(F)ccc2F)Oc2cc(/C=C/c3ccccc3)ccc2S1(=O)=O | i | 1.3 | 4.0 | 2.0 | -2.9
CCCn1c(CC)nc([N+](=O)[O-])c1Sc1ncn[nH]1 | i | -3.2 | 13.5 | 3.4 | -2.3

Screening data deposited in PubChem by Broad Institute.
